# Polio RdRp inh: poliovirus RdRp elongation inhibitors, primary screen, biochemical, fluorescence polarization, total intensity. % elongation, % (compound at 16.7 µg/mL). poliovirus polymerase elongation; hits give low values. hit rate 0.66% among 150,000; in the data active means % elongation below about 90%; further: some results filed as inactive read as strong as hits
# Target sequence (P03300 1749-2209 limits assumed): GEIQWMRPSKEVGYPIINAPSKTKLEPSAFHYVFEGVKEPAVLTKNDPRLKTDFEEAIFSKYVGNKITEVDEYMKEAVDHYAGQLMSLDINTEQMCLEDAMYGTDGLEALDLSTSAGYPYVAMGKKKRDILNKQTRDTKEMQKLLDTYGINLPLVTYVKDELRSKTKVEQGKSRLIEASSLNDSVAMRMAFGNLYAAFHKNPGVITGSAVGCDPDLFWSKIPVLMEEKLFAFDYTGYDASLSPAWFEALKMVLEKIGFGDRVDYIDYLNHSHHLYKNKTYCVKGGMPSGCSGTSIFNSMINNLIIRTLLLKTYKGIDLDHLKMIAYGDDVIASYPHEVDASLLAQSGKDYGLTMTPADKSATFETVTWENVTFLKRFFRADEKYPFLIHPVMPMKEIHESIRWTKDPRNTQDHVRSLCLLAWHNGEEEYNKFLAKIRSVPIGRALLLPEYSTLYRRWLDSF
# MbtI inh: MbtI salicylate synthase inhibitors, primary screen, biochemical, fluorescence intensity; AID 493033, 2011; inhibition, %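 (about 17 µg/mL by stock and volumes)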; hit rate 0.89% among 100,000; purified MbtI enzyme, fluorescence intensity read-out; P9WFX0;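 active means above 50% in both replicates, above 80% if mildly self-fluorescent; inactive means the rest, strongly fluorescent compounds included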;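 further: 0% = mean of negative and 100% = mean of positive controls; one replicate is shown; some compounds called inactive have numbers as strong as hits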
# Mtb MenB inh: M. tuberculosis MenB inhibitors, primary screen, biochemical, absorbance; AID 540299, 2011; 1,4-dihydroxy-2-naphthoyl-CoA synthase (Mycobacterium tuberculosis (strain ATCC 25618 / …; inhibition, %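 (about 12 µg/mL by stock and volumes)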; MenB enzyme assay, absorbance read-out; some hits fall short of the stated cut; hit rate 0.43% among 100,000;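 active means mean of two replicates above 30%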;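 further: 0% = no compound and 100% = wells with inactive enzyme; the first replicate is given; strong numbers were not always called active; inactives centre near -10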
# Target sequence (P9WNP5 whole entry, looked up): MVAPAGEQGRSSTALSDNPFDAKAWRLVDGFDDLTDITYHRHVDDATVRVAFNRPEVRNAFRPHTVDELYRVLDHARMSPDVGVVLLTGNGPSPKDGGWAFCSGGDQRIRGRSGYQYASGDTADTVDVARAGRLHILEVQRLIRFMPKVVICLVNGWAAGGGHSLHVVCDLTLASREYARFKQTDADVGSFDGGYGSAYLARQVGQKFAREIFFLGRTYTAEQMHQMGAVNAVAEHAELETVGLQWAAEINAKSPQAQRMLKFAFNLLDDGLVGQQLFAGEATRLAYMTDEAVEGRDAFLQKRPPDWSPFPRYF
# Polio RdRp inh intensity: recorded beside Polio RdRp inh, whose call it bears; % elongation; measured here: total intensity read-out; formula for this scale not given here;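 total fluorescence in place of polarization; lower means less elongation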
# The depositor's hits bear a star; i = inactive; · = no result given.
# Second line of a record: Polio RdRp inh	Polio RdRp inh intensity	MbtI inh	Mtb MenB inh
CC(Sc1ncnc2sc3c(c12)CCC3)C(N)=O (configuration not stated)
 : 99	100	-6	-1
Cn1c(Cc2ccsc2)nnc1Sc1nc2ccc(Cl)cc2s1
 : 107	108	-13	-10
O=C1C2=C(NC(=S)NC2c2ccccc2)c2ccccc21 (configuration not stated)
 : 105	109	-7	-86
CCn1nnnc1SCCSc1nnnn1CC
 : 100	103	-9	1
CCc1nc2cc(Cl)c(Cl)cc2nc1CC
 : 102	103	9	-8
COC(=O)c1cc(=O)n(C)c(=Nc2ccc(F)c(F)c2)s1
 : 101	103	1	-15
CCOc1ccc(/C=C2/C(=O)N(C)C(=S)N2CC(=O)OC)c(OCC)c1
 : 104	100	i	-69
O=C(CSc1nccn1-c1ccc(Cl)cc1)NCc1ccco1
 : 101	101	2	-8
O=c1ccc2cc(O[C@@H]3OC(CO)[C@@H](O)[C@@H](O)C3O)c(O)cc2o1 (some centres not stated)
 : 99	100	-264	-10
OC1(C(F)(F)F)CC(c2cc3ccccc3o2)=NN1 (configuration not stated)
 : 100	98	-94	0
c1cncc(-c2nc(-c3ccco3)cs2)c1
 : 102	97	6	·
CCCC12CN3CC(CCC)(CN(C1)C3c1ccc3c(c1)OCO3)C2=O (configuration not stated)
 : 99	103	-15	-26
O=C(NN1CC(=O)N(c2ccccn2)C1=O)C(c1ccccc1)c1ccccc1
 : 100	100	-5	7
COc1ccc(Cn2c(=O)[nH]c3cc(C(=O)NC4CCCC4)ccc3c2=O)cc1
 : 99	103	-5	-13
Cc1cccc(Oc2coc3cc(O)ccc3c2=O)c1
 : 104	103	22	-15
O=C(NCC1CCCO1)c1ccc(Cn2c(=S)[nH]c3ccccc3c2=O)cc1 (configuration not stated)
 : 103	101	-12	-13
Cc1cc(-c2ccc(S(=O)(=O)Nc3cccc(Br)c3)cc2)on1
 : 107	99	0	-37
O=C(CCc1cn(Cc2ccc(F)cc2)c2ccccc12)N1CCOCC1
 : 103	98	4	-13
Cn1c(CNS(=O)(=O)c2ccc(F)cc2)nnc1SCc1ccccc1
 : 99	99	-2	-8
N#CCSC1=Nc2ccccc2C2=NC(CCC(=O)NCc3ccccc3)C(=O)N12 (configuration not stated)
 : 102	104	72	3

# Compound profiles, from the list above.
# `Cc1cc(-c2ccc(S(=O)(=O)Nc3cccc(Br)c3)cc2)on1` as listed: Polio RdRp inh = 107; Polio RdRp inh intensity = 99; MbtI inh = 0; Mtb MenB inh = -37
# `O=C(NN1CC(=O)N(c2ccccn2)C1=O)C(c1ccccc1)c1ccccc1` as listed: Polio RdRp inh = 100; Polio RdRp inh intensity = 100; MbtI inh = -5; Mtb MenB inh = 7

# Further records.
# Second line of a record: Polio RdRp inh	Polio RdRp inh intensity	MbtI inh	Mtb MenB inh
C=CCNC1CCS(=O)(=O)C1 (configuration not stated)
 : 103	102	-13	-6
Clc1cccc(-n2nnc(-c3ccccc3)n2)c1
 : 101	98	-7	-6
O=C1CCCS(=O)(=O)c2ccccc21
 : 103	99	5	-21
Cn1cccc1/C=C/C(=O)Nc1ccc2c(c1)CCC2
 : 105	94	3	-16
CCOC(=O)c1cccc(NC(=O)c2ccccc2Cl)c1
 : 105	102	-2	-24
CCOc1ccc(C(=O)/C=C(/Nc2cccc(C)c2)C(=O)O)cc1
 : 101	103	4	-100
O=C(NCc1ccco1)[C@H](Cc1ccccc1)N1Cc2ccccc2C1=O
 : 102	100	-3	-9
CC(C)(C)C(=O)Cn1nc(Cl)nc1Cl
 : 100	100	-4	16
N#CC(C(=O)C1CCCCC1)c1nc2ccccc2[nH]1 (configuration not stated)
 : 102	106	0	·
O=C(Nc1ccc(N2CCCCC2)cc1)Nc1cccc(Cl)c1
 : 110	116	0	1
CC1CCC2C(C1)Nc1c(C(=O)O)cccc1C2(C)C (configuration not stated)
 : 100	101	85	7
O=C(CSc1ccc(Br)cc1)Nc1ccc(S(=O)(=O)NCc2ccco2)cc1
 : 99	104	5	-1
c1ccc(-c2nc(CN3CCNCC3)co2)cc1
 : 101	108	-3	-7
Cc1nc2cc(NC(=O)COc3ccccc3C#N)ccc2n1-c1ccccc1
 : 112	124	-24	-1
COc1cc2c(cc1OC)C(C(=O)NCC1CCCO1)C(c1cccnc1)N(C)C2=O (configuration not stated)
 : 101	103	10	-3
Cc1cc(C)nc(SCc2nc3ccccc3c(=O)n2-c2ccc(C(F)(F)F)cc2)n1
 : 101	97	·	-9
O=C(C(c1ccccc1)c1ccccc1)N1CCCC1
 : 102	103	·	-9
O=c1oc2ccccc2n1S(=O)(=O)c1c(F)c(F)c(F)c(F)c1F
 : 97	100	-10	-3
CCOc1ccc(N(Cc2cccc3ccccc23)C(=O)c2ccco2)cc1
 : 105	104	·	-35
Cc1onc(-c2c(F)cccc2Cl)c1C(=O)Nc1ccc(S(=O)(=O)N2CCOCC2)cc1
 : 106	107	-3	-28
CCOc1cc(CNc2ccc3c(c2)CCC3)ccc1O
 : 103	104	-2	-9
CCCN1CN(Cc2ccccc2)CC2=C1CC(C)(C)CC2=O
 : 102	99	14	-35
CCN1C(=O)/C(=C/c2c(N3CCCCC3)nc3ccccn3c2=O)SC1=S
 : 73	195	3	-12
O=C(COC(=O)C12CC3CC(CC(Br)(C3)C1)C2)Nc1ccccc1
 : 100	94	1	·
CC(=O)n1c2ccc(C)cc2c2nc3ccccc3nc21
 : 108	100	·	-23
S=c1[nH]nc(CNc2cccc(Cl)c2)o1
 : 100	100	84*	-26
O=C(O)c1ccc(N=Nc2c(O)[nH]c(=O)[nH]c2=O)cc1
 : 103	98	7	-319
CCC1=NP(N2CCN(C)CC2)(N2CCN(C)CC2)=NC(N2CCN(C)CC2)=C1C
 : 101	105	-5	9
Cc1ccc(-n2nc3c(c2NC(=O)COc2ccc(Cl)cc2Cl)CS(=O)C3)cc1 (configuration not stated)
 : 96	103	1	-10
CCOCCC(=O)N1CCCCC1CC (configuration not stated)
 : 98	100	8	-8
CC1CCCCN1C(=O)CCn1cnc2onc(-c3ccc(F)cc3)c2c1=O (configuration not stated)
 : 103	103	15	-28
CC(Sc1ccccc1)C(=O)N1CCN(c2ccccc2F)CC1 (configuration not stated)
 : 105	109	-13	-1
CC(=O)NC1N=C(C)N(c2ccccc2)C1=O (configuration not stated)
 : 99	100	1	9
COc1cccc(=O)c2c(C)n(CC(=O)c3ccccc3)c(C)c12
 : 106	119	10	-36
O=C(O)c1ccc(COc2ccc3c(c2)CCC3)o1
 : 99	98	3	·
CC1CCN(C(=O)CSc2nc3cc4c(cc3cc2C#N)OCO4)CC1
 : 102	103	8	-22
Cc1ccc(N2C(=O)c3ccccc3C2Nc2ccc(S(=O)(=O)N3CCCCCC3)cc2)nc1 (configuration not stated)
 : 100	101	5	-13
CC(=Nc1ccc(N(C)C)cc1)C1=C(O)c2ccccc2C1=O
 : 101	103	-5	·
CSc1ccc(C2OC(=O)C(=Cc3ccc(C)o3)C(=O)O2)cc1 (configuration not stated)
 : 97	102	22	-59
NC(=O)CSc1ccc2ccccc2c1
 : 99	104	-9	-17
CCN1C2=C(C#N)C(=O)CCCN2C(=O)c2ccccc21
 : 103	108	15	-26
O=C(OCC(=O)N1CCC(Cc2ccccc2)CC1)c1ccc(O)cc1
 : 102	109	-6	-22
Cc1onc(-c2c(F)cccc2Cl)c1-c1nc(-c2ccccc2)no1
 : 103	100	-2	-14
FC(F)(F)c1ccccc1NC(=S)N1CCCC1
 : 103	113	-14	3
CCN1CCN(CCC(=O)Nc2ccc3c(c2)CCC3)CC1
 : 101	106	-4	4
CC12CN3CC(C)(CN(C1)C3(C)CSc1c[nH]c3ccccc13)C2=O (configuration not stated)
 : 99	102	7	-1
COc1cccc(/C=C/C(=O)C2C(=O)c3ccccc3C2=O)c1
 : 97	94	11	-19
CSc1ccc(-c2nc(CSCC(=O)N3CCCC3)c(C)o2)cc1
 : 100	106	108	-17
O=C(COc1ncnc2sccc12)NC(=O)NCc1ccco1
 : 106	108	-12	-28
CCOc1ccc2nc(NCCNC(=S)NC)c(C#N)cc2c1
 : 100	101	9	-23
COc1ccc(C(=O)Cn2c(C(F)(F)F)nc3ccccc32)cc1
 : 103	106	-9	·
COc1ccc(-c2noc(CSCC(=O)Nc3ccc(Br)cc3C)n2)cc1OC
 : 105	103	-8	-27
Cc1ccc(N2CC(C(=O)N3CCC(C(=O)Nc4cccnc4)CC3)CC2=O)cc1 (configuration not stated)
 : 102	101	-4	-6
O=C(NCCc1ccccc1)c1cccc(Nc2nc3ccccc3n3nnnc23)c1
 : 103	109	-55	-21
C=C(C)COc1ccc2c(CCCC)cc(=O)oc2c1
 : 98	100	6	-26
O=S(=O)(NNc1ncnc2sccc12)c1ccc(Cl)cc1
 : 103	95	40	-19
O=C(O)Cn1ccccc1=O
 : 105	100	9	-89
Cc1nn(-c2ccccc2)c2nc(-c3cccnc3)cc(C(=O)NNC3=NCCC3)c12
 : 107	107	8	-28
O=C1CCC(C(=O)NCc2ccccc2)N1 (configuration not stated)
 : 101	101	-5	-8
Cc1ccc2c(N)c(C(N)=O)sc2n1
 : 102	105	16	14

# Next entries
# Second line of a record: Polio RdRp inh	Polio RdRp inh intensity	MbtI inh	Mtb MenB inh
CCOC(=O)Cc1csc(SCc2c(C(=O)OCC)oc3ccccc23)n1
 : 104	99	8	0
CCS(=O)(=O)c1ccc2c(c1)N=Cc1c(C)nn(Cc3ccc(Cl)cc3)c1O2
 : 103	105	-29	-6
COc1ccc(S(=O)(=O)N2CCn3c2nc2ccccc23)cc1
 : 105	101	-8	-31
C#CCSc1nsc(SCC#C)c1C#N
 : 102	103	2	-36
O=C(CSc1nnc2ccccn12)N1CCOCC1
 : 101	100	187	-7
O=C1c2ccccc2C(Nc2ccccc2)N1c1ccccn1 (configuration not stated)
 : 100	103	6	4
O=S(=O)(c1ccc(Br)cc1)N1CCc2[nH]ncc2C1
 : 102	104	-8	-10
CC(C)NC(=O)C12CC3CC(C1)CC(C(=O)NC(C)C)(C3)C2
 : 102	102	-4	6
CCCNC(=O)N1CCC(c2ccc3c(c2)OCO3)CC1
 : 102	101	-3	-3
Cc1nc2ccc(C(=O)OCC(=O)c3ccc(Cl)cc3)cc2nc1C
 : 111	117	·	-2
c1ccc(CCn2c(-c3cccs3)nc3ccccc32)cc1
 : 100	101	115	5
CCCN(CC1CC1)C(=O)CSC1=N/C(=C\c2ccco2)C(=O)N1c1ccc(OC(F)F)cc1
 : 107	111	-18	-124
Cc1ccc2c(CC(=O)OC(C)C#N)coc2c1 (configuration not stated)
 : 93	95	-1	-4
CC(C)C1CC(c2csc(N)n2)CCO1 (configuration not stated)
 : 102	102	-16	-5
Clc1cccc(CNCc2ccco2)c1
 : 103	108	·	-5
CC1CCN(C(=O)COC(=O)CCc2nc3ccccc3s2)CC1
 : 104	108	-10	-22
CC1CN(C(=O)C(C)OC(=O)c2ccc3ncsc3c2)CC(C)O1 (configuration not stated)
 : 103	110	-29	2
CC(C)(C)OC(=O)NCC12C=CC(O1)C1C(=O)N(Cc3ccccc3)C(=O)C12 (configuration not stated)
 : 98	102	27	-38
COC(=O)C1SCCN1C(=O)c1cc(-c2ccc(Cl)cc2)oc1C (configuration not stated)
 : 105	104	-2	-16
CCCn1c(C(=O)OC)cc2c1ccn2C
 : 100	105	25	-42
c1ccc(-c2ccc3c(c2)c2c4n3CCN=C4CCC2)cc1
 : 100	102	-88	-4
O=C1CCC(=O)N1CC(=O)N1CCCc2ccccc21
 : 104	101	-6	-13
O=C(/C=C/c1ccc2ccccc2n1)N1CCN(S(=O)(=O)c2ccc3c(c2)OCCCO3)CC1
 : 107	118	-8	-33
O=C(CCn1c(=O)c2ccccc2n(CC(=O)Nc2ccccc2)c1=O)NCCc1ccccc1
 : 101	106	4	2
O=c1[nH]c(CN2CCN(CCO)CC2)nc2ccccc12
 : 100	96	20	-8
Cc1coc2cc3oc(=O)c(CCC(=O)NCCc4ccccc4)c(C)c3cc12
 : 100	104	-14	15
CCC(C)CNC(=O)c1ccc(OC)c(OC)c1 (configuration not stated)
 : 103	97	1	·
O=C(c1ccno1)c1cc(F)ccc1O
 : 100	105	-4	·
O=C(O)CCc1ccc(-c2ccccc2)n1CCC(=O)O
 : 101	102	180	-11
CCN1C(=Nc2ccc(Cl)cc2)SC/C1=C\C(=O)OC
 : 102	103	-7	-17
O=C(COC(=O)C12CC3CC(CC(Cl)(C3)C1)C2)c1ccccc1
 : 101	101	-6	·
COC(=O)/N=C/c1c(NCc2ccccc2)nc2c(C)cccn2c1=O
 : 103	108	19	-19
COc1ccccc1Cn1c(=S)[nH]c2cc(C(=O)NCCN3CCOCC3)ccc2c1=O
 : 100	106	7	0
O=C(NC1CCCCC1)C1CC(c2ccccc2F)=NO1 (configuration not stated)
 : 100	104	8	4

# Taken from above:
# For Mtb MenB inh, Cc1coc2cc3oc(=O)c(CCC(=O)NCCc4ccccc4)c(C)c3cc12 has the entry 15
# For Polio RdRp inh, CCN1C(=Nc2ccc(Cl)cc2)SC/C1=C\C(=O)OC has the entry 102
# For Polio RdRp inh, O=C(c1ccno1)c1cc(F)ccc1O has the entry 100
# For Polio RdRp inh, COC(=O)/N=C/c1c(NCc2ccccc2)nc2c(C)cccn2c1=O has the entry 103
# For MbtI inh, O=C(COC(=O)C12CC3CC(CC(Cl)(C3)C1)C2)c1ccccc1 has the entry -6

# Screening data as filed in PubChem.

# Rows were taken by chance. About 1.7% of those tested had a hit in this group.
